Bioassay records: PubChem, several laboratories
Ecoli rRNA inh = reduced GFP signal of wild-type E. coli, primary screen, bacterial rRNA inhibitor project, GFP/RFP fluorescence, OD600, single point | 350,000 compounds, 1.6% hits | E. coli WT GFP vs humanized-ribosome RFP mutants, 24 h; hits give low values; DMSO median 0, no signal -100 | GFP signal change (wild-type ribosome), % (no concentration beside the values) | AID 720706, 2013;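 active means significant combined selectivity score with lowered wild-type GFP, culture density cut under 30%, mutant RFP and density less affected; inactive means any of these conditions unmet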; further: one replicate is shown; some compounds called inactive have numbers as strong as hits
Beta apoptosis = inhibitors of cytokine-induced beta cell apoptosis, primary screen, luminescence. INS-1E cytokine-induced death, ATP luminescence, 48 h; percent of positive-control rescue, neutral wells zero. protection from apoptosis, % (concentration not given with the values). 300,000 compounds, 0.8% hits;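 active means all replicates at 75% or more, or half of them and the mean; inconclusive means half reach 75% but not the mean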;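 further: 0% = cytokine-treated negative control wells and 100% = positive control rescue; higher means more ATP so stronger rescue from cytokine killing; wells of about 40 µL received 100 nL stock; the first replicate is given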
Calb FLC = C. albicans growth inhibition with fluconazole, primary screen, CaCi-2 strain, Alamar Blue fluorescence | C. albicans CaCi-2 (fluconazole-resistant clinical isolate) + fluconazole, 48 h | growth inhibition, % (no concentration beside the values) | 300,000 compounds, 0.57% hits;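 active means most replicates above 75%; inconclusive means exactly half above 75%; inactive means most below 75%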;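 further: all wells also contain fluconazole at 8 µg/ml as a sub-toxic cotreatment; 0% = median of DMSO wells and 100% = median of geldanamycin control wells; wells of about 8 µL received 7.5 nL stock; the first replicate is given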
A1 inh = caspase 3/7 activation in MEF A1-2A-BIM cells, primary screen, A1 inhibitor project, cell-based, luminescence, HTS | caspase activation, % (concentration not given with the values) | 330,000 compounds, 0.066% hits | Caspase-Glo 3/7 luminescence, 3 h; percent of clofoctol response, vehicle zero;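 active means over half of replicate activation scores above 10%, or exactly half above 10 with the replicate mean above 10; inconclusive means replicate mean below 10 yet half the replicates above 10; inactive means over half of replicates below 10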;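 further: wells of about 30 µL received 50 nL stock; many hits fall short of the cut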
AF4-AF9 inh = inhibitors of AF4 peptide binding to AF9, primary screen, biochemical, AlphaScreen, biotin-AF4 peptide, FLAG-AF9, single point | Protein AF-9 (Homo sapiens), P42568 | inhibition, % at 10 µM | 350,000 compounds, 0.47% hits;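 active means every replicate reaching a set inhibition limit, whatever the replicate mean, cut at about 25% in these data; inconclusive means mean inhibition reaches that limit but some replicates miss it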;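 further: 0% = plate neutral control median and 100% = total signal loss; the record names both 10 and 1 µM as test concentration; the first replicate is given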
Target sequence (P42568 whole entry, looked up): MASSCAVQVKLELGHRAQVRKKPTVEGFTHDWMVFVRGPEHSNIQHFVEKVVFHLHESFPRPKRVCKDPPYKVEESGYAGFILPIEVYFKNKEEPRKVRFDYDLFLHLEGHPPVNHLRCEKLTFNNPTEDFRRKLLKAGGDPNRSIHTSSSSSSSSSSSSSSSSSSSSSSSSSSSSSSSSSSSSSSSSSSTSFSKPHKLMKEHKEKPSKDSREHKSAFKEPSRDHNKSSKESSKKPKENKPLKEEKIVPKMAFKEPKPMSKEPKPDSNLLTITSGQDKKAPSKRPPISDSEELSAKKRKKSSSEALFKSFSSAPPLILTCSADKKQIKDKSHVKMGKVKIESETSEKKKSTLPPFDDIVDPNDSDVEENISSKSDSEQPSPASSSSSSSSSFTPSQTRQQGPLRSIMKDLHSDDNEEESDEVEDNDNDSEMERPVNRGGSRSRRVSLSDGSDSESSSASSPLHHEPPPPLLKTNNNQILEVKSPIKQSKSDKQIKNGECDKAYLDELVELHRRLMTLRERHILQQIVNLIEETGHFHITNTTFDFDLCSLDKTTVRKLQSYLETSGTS
RanGTP-Impb inh = inhibitors of RanGTP-importin-beta interaction, primary screen, biochemical, FRET, CFP-Ran, YFP-importin-beta, homogeneous | cell-free CFP-Ran/YFP-importin-beta FRET ratio | inhibition, % (test concentration not listed) | 300,000 compounds, 1.1% hits | AID 2216, 2009;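 active means most replicates above 15%; inconclusive means exactly half above 15%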;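 further: 0% = DMSO wells and 100% = Ran loaded with GDP instead of GTP; wells of about 40 µL received 100 nL stock; the first replicate is given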
Vif A3G = inhibitors of Vif binding to APOBEC3G peptide, primary screen, biochemical, TR-FRET, GST-Vif 1-94, biotin-A3G peptide, dose response retest (AID 1117319); TR-FRET GST-Vif / biotin-A3G peptide binding; higher % means a stronger effect; test concentration not given here; strong numbers were not always called active; inhibition, %; hits with a dose series show IC50 in µM; 260,000 compounds, 0.57% hits;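 active means above the screen mean plus three standard deviations and confirmed in dose response; inconclusive means results disagree or hit not tested in dose response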;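 further: Vif residues 1-94 fused to GST binding biotinylated APOBEC3G peptide 110-148; 0% = full assay without inhibitor and 100% = GST in place of GST-Vif; retest series ran down from 100 µM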
T cruzi inh = inhibitors of intracellular T. cruzi growth, primary screen, luminescence, NIH3T3 host cells; T. cruzi beta-gal in NIH3T3, 90 h; inhibition, % (no concentration beside the values); 300,000 compounds, 1.4% hits; AID 1885, 2009;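 active means mean inhibition across valid replicates above about 55%, limit read from the data; inconclusive means mean below that limit but half or more replicates reach it; inactive means mean below it, under half of replicates reach it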;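 further: signal also drops with host cell toxicity which is not excluded here; 0% = plate median of DMSO wells and 100% = zero luminescence signal; higher percent means less beta-gal luminescence so fewer parasites; stock transfer was 50 nL into about 50 µL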
Ecoli rRNA inh OD600 = second read-out of Ecoli rRNA inh, no call of its own (marks repeat the call); OD600 change, %; measured here: OD600 growth;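 optical density of the mix in the first replicate; 0 = DMSO median and -100 = no signal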
Ecoli rRNA inh RFP = recorded beside Ecoli rRNA inh, whose call it bears; RFP signal change, %; measured here: RFP humanized mutant strains;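 first replicate; 0 = DMSO median and -100 = no signal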
An asterisk follows results filed as active; ? = inconclusive; . = not tested or not shown.

SMILES	Ecoli rRNA inh	Ecoli rRNA inh OD600	Ecoli rRNA inh RFP	Beta apoptosis	Calb FLC	A1 inh	AF4-AF9 inh	RanGTP-Impb inh	Vif A3G	T cruzi inh
Cc1ccc2cc3cc(C(=O)N4CC(C)CC(C)C4)oc3nc2c1 (stereo unspecified)	.	.	.	8	12	0.2	.	3.8	-1%	18
CCCN(CCC)CC(O)CN1C(=O)N(CN2C(=O)N(CC(O)CN(CCC)CCC)C(=O)C2(C)C)C(C)(C)C1=O (stereo unspecified)	1	6	0.3	2	-3	2.8	-1.2	-0.7	10%	-8
Cc1ccc(NC(=O)c2ccc(Nc3ccccc3F)nc2)cc1	0	2	0.6	-3	-5	-2.0	-1.1	1.1	.	5
Cc1cccc(NC(=O)N2CCC(NC(=O)C3CCCCC3)CC2)c1	9	12	1.2	0	-4	0.2	-2.5	3.8	3%	0
CCOC(=O)C1=C(COC(=O)COc2cccc(C)c2C)NC(=O)NC1C (stereo unspecified)	2	6	0.0	-2	.	-0.4	0.3	.	8%	.
CCOc1ccc(NC(=O)CCc2nnc3ccc(N4CCC5(CC4)OCCO5)nn23)cc1	3	5	1.0	-4	3	1.3	3.6	-1.4	.	-5
O=C(NCc1ccco1)C1OCCc2ccccc21 (stereo unspecified)	.	.	.	.	-4	0.6	.	0.1	15%	-3
Cc1ccc(C)n1-n1c(C)nc2scc(-c3cccs3)c2c1=O	.	.	.	6	5	0.0	.	4.5	14%	-36
Cc1cccc(CSCc2ccc(C(=O)O)o2)c1	1	-7	-1.5	-4	-8	-0.9	-1.1	6.5	-15%	-15
CCc1ccc(CN(C)C(=O)CCc2nnc(COc3ccccc3)o2)cc1	-13	-15	-0.7	4	8	-1.3	-5.0	?	-12%	6
O=C(N/N=C/c1ccc(O)c([N+](=O)[O-])c1)C(O)(c1ccccc1)c1ccccc1	-2	-1	-3.9	3	-11	-0.1	4.2	0.5	.	2
CCOC(CNC(=O)CN1C(=O)COc2ccc(S(=O)(=O)N3CC(C)CC(C)C3)cc21)OCC (stereo unspecified)	3	6	-0.5	1	-4	-0.3	0.8	2.6	1%	8
C=CCC(NCc1ccccc1)c1ccc(C)o1 (stereo unspecified)	.	.	.	-1	-8	0.0	.	3.7	-4%	-11
Cc1c(C(=O)NC(=S)Nc2ccc3c4c(cccc24)CC3)cccc1[N+](=O)[O-]	.	.	.	21	1	-0.7	.	0.0	-11%	-17
O=C(Nc1cccc(C(=O)Nc2cccc(C(F)(F)F)c2)c1)c1ccc(=O)[nH]c1	4	6	4.5	-7	0	0.9	-4.7	-0.6	29%	-5
C[C@H](NC(=O)c1ccc(Cl)c(S(=O)(=O)N2CCOCC2)c1)c1nc2ccccc2[nH]1	-12	-19	21	-9	.	0.2	4.5	.	-3%	.
O=C1CCC(=O)N1c1ccc(CSc2nnnn2C2CCCCC2)cc1	.	.	.	-2	1	1.1	.	-1.7	-7%	-15
CC1(c2nnc(-c3ccccc3)o2)CC(c2ccc(F)cc2)=NO1 (stereo unspecified)	-19	-17	-5.0	-2	-3	-0.7	-2.7	-0.9	-3%	-5
COc1cccc(COC(=O)C2CCN(C(=O)c3ccc(F)cc3)CC2)c1OC	-1	-14	-0.8	.	-2	0.4	-9.3	-1.2	0%	-13
CN(C)C(=O)c1ccc(NC(=O)COC(=O)CC23CC4CC(CC(Br)(C4)C2)C3)cc1	-2	0	0.1	-1	-1	-0.9	4.0	4.6	3%	-18
Cc1noc(C)c1S(=O)(=O)N1CCCC(C(=O)NC2CCCCC2)C1 (stereo unspecified)	3	7	1.6	-3	-22	0.1	3.7	10	0%	0
COCCNC(=O)Cn1cnc2ccc(S(=O)(=O)N3CCC(C)CC3)cc2c1=O	.	.	.	-3	-6	-0.5	.	0.3	-9%	0
CCCc1nnc(NC(=O)CCC(=O)N2CCN(c3ccccc3)CC2)s1	-1	7	-2.2	-3	.	0.4	1.1	1.1	6%	9
Cc1nc(-c2ccccc2)sc1-c1nc(-c2cccnc2)ncc1S(=O)(=O)c1ccccc1	.	.	.	-12	-6	0.3	.	3.7	-5%	46
Cc1ccc(S(=O)(=O)N(C)c2ccc(OCC(=O)O)cc2)cc1	.	.	.	-5	0	-0.4	.	-2.8	4%	2
Cc1ccc(NC(=O)CN2C(=O)CCS(=O)(=O)c3ccccc32)cc1Cl	3	3	3.5	-4	-5	0.2	0.2	1.5	-4%	1
COc1ccc(NC(=O)NC2(C(=O)N3CCN4CCCC4C3)CCCCC2)cc1 (stereo unspecified)	2	6	0.1	-4	-3	0.3	-2.1	-2.3	.	-12
CCOC(=O)N1CCN(S(=O)(=O)c2ccc(C(=O)Nc3nnc(CSC)o3)cc2)CC1	.	.	.	6	?	-1.1	.	3.2	-3%	0
Fc1ccc(CSc2nnc(-c3cc4c(s3)-c3ccccc3CC4)o2)cc1	.	.	.	2	0	0.2	.	4.1	3%	15
CC(=O)c1c(C(C)=O)c(C)n(NC(=O)c2cccnc2)c1C	2	8	-3.6	1	10	0.4	.	3.1	1%	3
Cc1nnc(SCc2nc3sc4c(c3c(=O)[nH]2)CCCC4)[nH]c1=O	-1	-8	-4.6	-7	43	1.4	-2.8	3.5	-2%	-5
Cc1ccc(/C=N/NC(=O)c2c(-c3ccccc3)noc2C)o1	.	.	.	-5	13	1.1	2.6	2.6	.	-12
Cn1c(/C(C#N)=C/c2ccncc2)nc2ccccc21	9	14	1.8	1	.	-0.4	-1.6	.	.	-12
Cc1ccsc1/C=N/NC(=O)Cc1ccc(Cl)cc1	-12	-19	-1.0	-4	-13	-0.2	1.7	-0.9	?	-2
CCOc1ccc(C(C)(C)C)cc1S(=O)(=O)N1CCOCC1	.	.	.	-1	-5	-0.4	.	-0.8	-2%	10
COc1ccccc1NC1=C(Cl)C(=O)N(c2ccccc2)C1=O	.	.	.	0	?	0.4	.	-2.0	-2%	0
COc1cc(C(=O)Nc2cccc3cccnc23)cc(OC)c1OC	.	.	.	-1	-9	0.1	.	1.2	-2%	4
COc1cc(C(C)=O)ccc1OC(=O)c1cc2cccc(OC)c2oc1=O	8	13	-7.4	-6	-1	-0.2	3.6	2.0	.	-6
COc1cccc(-c2nc(=S)c3c(o2)CCCC3)c1	2	0	1.8	-3	-12	-3.6	3.7	3.3	26%	-19
FC(F)(F)c1cc(-c2ccccc2)nc(N2CCCCC2)n1	.	.	.	4	-6	-0.3	.	2.9	-3%	7
CCC(C)/C(C)=N/NC(=O)C1COc2ccccc2O1 (stereo unspecified)	0	2	-6.7	1	-16	0.2	0.9	-0.3	.	-7
CCCC(=O)Nc1nn(C)c2nc3c(C)cccc3cc12	.	.	.	-4	0	0.9	.	31*	2%	1
Cc1cccc(CNc2ncnc3ccc(-c4ccc5c(c4)OCO5)cc23)c1	-20	-24	-1.1	27	.	0.7	0.4	.	.	.
O=C(CN(C(=O)CNC(=O)c1cccs1)c1ccccc1)NC1CCCCC1	0	-6	0.0	-6	1	-0.6	0.7	?	.	6
O=C(NC1CCCCC1)C1CC=CCC1C(=O)OCC(Cl)=C(Cl)Cl (stereo unspecified)	.	.	.	2	-16	1.6	.	3.3	0%	13
Cc1ccccc1NC(=O)C(C)SCc1ccccc1 (stereo unspecified)	1	1	0.5	1	0	0.9	-6.9	0.8	25%	-7
Cc1nc(Cl)c(C#N)cc1-c1ccccc1	.	.	.	-10	-11	-0.3	.	2.7	4%	-8
COc1ccc(OC)c(NC(=O)C2CCCN2S(=O)(=O)c2cccc3nsnc23)c1 (stereo unspecified)	0	-6	2.3	7	-2	0.3	7.3	-2.0	2%	-10
Cc1ccc(CNc2cccnc2)cc1	0	-10	-1.7	-4	5	0.7	-0.2	0.9	-2%	-2
O=c1ccnc2n1COCS2	4	11	-2.4	-5	8	-0.1	-0.5	9.2	?	-4
Cc1cccc(NC(=S)N2CCC(c3nc4ccccc4s3)CC2)c1	.	.	.	-6	2	0.0	.	0.7	-1%	33
CCc1ccc(/C=C2/SC(=S)N(CCC(=O)Nc3cccc(C(=O)O)c3)C2=O)cc1	16	15	47	-1	5	1.1	-2.9	-2.3	13%	4
O=C(NCCSc1ccccc1)c1cncc(Br)c1	.	.	.	-1	9	0.0	.	0.9	5%	3
COc1ccc(/C=N/Nc2cc(N(C)C)nc(N(C)C)n2)cc1	.	.	.	.	-2	0.1	28*	7.2	-1%	49
O=C(NCc1ccccc1)c1onc(CS(=O)(=O)c2ccccn2)c1C(=O)NCc1ccccc1	-13	-2	-5.9	12	16	0.2	-8.2	-1.1	.	12
Cc1ccc(C(=O)Cn2c(=N)n(CCN3CCOCC3)c3ccccc32)cc1	-3	1	0.2	-5	.	-0.6	-0.8	.	.	.
O=C(C1CCCN(Cc2ccccc2[N+](=O)[O-])C1)N1CCCCC1 (stereo unspecified)	13	12	-1.2	-4	4	1.0	2.1	1.4	-1%	-6
O=C(CCCN1CC=C(n2c(=O)[nH]c3ccccc32)CC1)c1ccc(F)cc1	.	.	.	-12	.	-1.4	-0.6	1.3	-6%	-23
COc1ccccc1C(=O)NCCC(=O)Nc1ccc(S(=O)(=O)N2CCC(C)CC2)cc1	-23	-47	3.9	-5	.	0.6	-0.3	.	-8%	.
Cc1ccc(SCc2cc(=O)[nH]c(N3CCCCC3)n2)cc1	.	.	.	-3	0	-0.4	.	0.2	1%	1
N#CC(CO)(Cc1ccc(OC(F)F)cc1)c1nc2ccccc2[nH]1 (stereo unspecified)	-21*	-4.5*	-4.9*	-5	7	0.7	7.2	1.7	-9%	-24
CCN(CC)S(=O)(=O)c1ccc(N2CCOCC2)c(NC(=O)C2COc3ccccc3O2)c1 (stereo unspecified)	1	-3	12	-15	-2	-0.6	2.6	7.6	?	13

Three structures from above, ordered by molecular weight, lowest first:
SMILES	Ecoli rRNA inh	Ecoli rRNA inh OD600	Ecoli rRNA inh RFP	Beta apoptosis	Calb FLC	A1 inh	AF4-AF9 inh	RanGTP-Impb inh	Vif A3G	T cruzi inh
CCC(C)/C(C)=N/NC(=O)C1COc2ccccc2O1 (stereo unspecified)	0	2	-6.7	1	-16	0.2	0.9	-0.3	.	-7
CCCC(=O)Nc1nn(C)c2nc3c(C)cccc3cc12	.	.	.	-4	0	0.9	.	31*	2%	1
Cc1ccccc1NC(=O)C(C)SCc1ccccc1 (stereo unspecified)	1	1	0.5	1	0	0.9	-6.9	0.8	25%	-7

A portion of the library; count on the stated rates, not on these rows.
